Screens as filed in PubChem.
Biofilm kill mix – mixtures killing C. albicans biofilm | C. albicans biofilm persisters + clotrimazole, fluorescence viability; primary screen in compound mixtures of four per well | inhibition, % at 7.6 µM | hit rate 0.02% among 120,000 | AID 1242;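 active = inhibition above 30.3% in the primary screen of four-compound pools, then above 30% when the compound was retested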;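 also: compounds exposed to preformed 24 h biofilms for 48 h; the number belongs to the whole pool; some results filed as inactive read as strong as hits; inactives centre near 12; 0% = biofilm with clotrimazole alone and 100% = kill control; retested singly at about 60 µM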
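Test system: C. albicans CAF4-2 wild-type biofilms; buffer or medium: RPMI/MOPS medium, pH 7.0; schedule: 24 h biofilm formation, then 48 h compound exposure, 37 °C; detection: Alamar Blue fluorescence; measure: percent inhibition of biofilm viability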
An asterisk follows results filed as active. These rows are one share of the data (hit frequency here may not be typical).

SMILES | Biofilm kill mix
Cc1c(-c2ccc(Br)cc2)[n+](=O)c2c(n1[O-])CCCCC2 | 10
NC(=O)Cc1ccc(C(=O)c2ccc(F)cc2)s1 | 9
COc1ccc(CC(=O)Nc2ccccc2N2CCOCC2)cc1OC | 2
Cc1ccc(S(=O)(=O)NCCN2CCNC2=O)cc1 | 23
CN(C)S(=O)(=O)c1cccc(NC(=S)Nc2ccc3cn[nH]c3c2)c1 | -2
O=C(COC(=O)c1cncc(Br)c1)Nc1nc(-c2ccc(F)cc2)cs1 | 2
Cc1cccc2sc(NC(=O)[C@@H]3CCCN3C(=O)c3cccs3)nc12 | 14
Cc1ccc(NC(=O)CN2C(=O)S/C(=C\C(=O)Nc3ccc(Cl)cc3)C2=O)cc1 | 5
COC(=O)c1sc(C(F)(F)F)c(-c2ccccc2)c1S(=O)(=O)N1CCCC1 | 12
Cc1cc(C)n2nc(C(=O)NCc3ccco3)cc2n1 | 13
CN(Cc1ccc(OCC(O)CN(C)Cc2ccccc2)cc1)Cc1nccn1C (stereo not drawn) | 1
CCCCNC(=O)/C(C#N)=C/c1ccc(C(=O)OC)cc1 | 5
COc1cccc(NC(=O)CSc2c3c(nc4ccccc24)CCCC3)c1 | 6
O=C(NCc1ccco1)C12CC3CC(CC(C3)C1)C2 | 8
COC(=O)c1ccc(COc2ccccc2/C=C(\C#N)C(=O)Nc2ccc(C)cc2C)cc1 | 12

3 consecutive compounds from above, quoted:
SMILES | Biofilm kill mix
Cc1c(-c2ccc(Br)cc2)[n+](=O)c2c(n1[O-])CCCCC2 | 10
NC(=O)Cc1ccc(C(=O)c2ccc(F)cc2)s1 | 9
COc1ccc(CC(=O)Nc2ccccc2N2CCOCC2)cc1OC | 2

Carrying on.
SMILES | Biofilm kill mix
COc1ccc2c(c1)n([O-])c1c([n+]2=O)CCC1 | 12
O=C(c1ccc(Br)cc1)N1CCCC(c2nc(-c3cccs3)no2)C1 (stereo not drawn) | 23
C/C(N)=C(/C#N)C(=O)CSc1nc2scc(-c3ccccc3)c2c(=O)n1C | -9
CCOC(=O)c1cc(-c2ccc(N3CCOCC3)cc2)nn1-c1ccccc1 | 20
O=C(O)/C(=C/c1cccnc1)NC(=O)c1ccccc1 | -5
CC12CCCc3c(O)cc(=O)n(c31)-c1ccccc12 (stereo not drawn) | 9
CCN(CC)CCNC(=O)c1cccc(NC(=O)C(=O)c2cc(Br)ccc2NC(C)=O)c1 | 1
C=CCc1c(C)nc(-c2ccccc2)nc1Nc1ccc(O)cc1 | 23
O=C1NC(c2ccc(Br)cc2)=N/C1=C/c1ccco1 | 21
CC(OC(=O)c1ccc(F)cc1)C(=O)Nc1nc(-c2cccc([N+](=O)[O-])c2)cs1 (stereo not drawn) | 9
O=C(NCc1cccnc1)C(=O)NCC1OCCN1S(=O)(=O)c1cc(F)ccc1F (stereo not drawn) | 12
Cc1cc(C)c2c3c(sc2n1)C(=O)N(c1ccccc1)CC(=O)N3 | 14
O=C1CC(c2ccccc2)CC(=O)C1Sc1ccc(Cl)cc1 (stereo not drawn) | 15
COc1ccc(CCC(=O)NCCCNC(=O)CCc2ccc(OC)cc2)cc1 | 14
Cn1c(SCCC#N)nnc1-c1ccccc1F | 6
CCc1ccc(C(=O)/C=C2\Sc3ccccc3NC2=O)cc1 | 10
C=CCn1c(SCc2n[nH]c(=S)n2-c2ccccc2)nnc1-c1ccccc1 | 16
O=C(COc1ccc([N+](=O)[O-])cc1)NNC(=S)NC(=O)c1ccc(Br)cc1 | 8
COc1ccc(/C=N/NC(=O)c2[nH]c3ccc(Br)cc3c2-c2ccccc2)c(C(=O)O)c1OC | 19
O=C(NCC1CCCO1)C(c1ccc(F)cc1)N(Cc1ccc2c(c1)OCO2)C(=O)c1ccc(CN2CCOCC2)o1 (stereo not drawn) | 9
CCCCC(=O)Nc1ncc([N+](=O)[O-])s1 | 23
COc1cccc(CNC(=O)CCC2CCCN(C(=O)CCn3cncn3)C2)c1 (stereo not drawn) | 8
O=C(COC(=O)c1cc(=O)[nH]c2ccccc12)Nc1cccc(S(=O)(=O)N2CCOCC2)c1 | 18
C=CCN1c2ccccc2[C@]23C[C@@H](C(=O)OC)N(C(=O)CC(C)C)C2=NC(C(=O)OC)=C(C(=O)OC)[C@H]13 | 11
CCN(CC)c1ccc(/C=N/NC(=O)OC(C)(C)C)cc1 | 5
CCOC(=O)C(C)Sc1nc2c(cnn2-c2ccc(C)cc2)c(=O)[nH]1 (stereo not drawn) | 14
CCC(CC)C(=O)N1N=C(c2ccc(NS(C)(=O)=O)cc2)CC1c1ccc(C)cc1 (stereo not drawn) | 22
COc1ccc(CC(=O)N2CCC(Nc3nc4ccccc4n3Cc3ccc(F)cc3)CC2)cc1 | 9
CCc1cccc(CC)c1NC(=O)COC(=O)c1ccccc1-c1nc2ccccc2s1 | 3
CN1CCN(S(=O)(=O)c2cccc(C(=O)Nc3nccs3)c2)CC1 | 12

7 compounds drawn at random from the list so far:
SMILES | Biofilm kill mix
COc1ccc(/C=N/NC(=O)c2[nH]c3ccc(Br)cc3c2-c2ccccc2)c(C(=O)O)c1OC | 19
O=C(NCC1CCCO1)C(c1ccc(F)cc1)N(Cc1ccc2c(c1)OCO2)C(=O)c1ccc(CN2CCOCC2)o1 (stereo not drawn) | 9
CCOC(=O)C(C)Sc1nc2c(cnn2-c2ccc(C)cc2)c(=O)[nH]1 (stereo not drawn) | 14
COc1cccc(CNC(=O)CCC2CCCN(C(=O)CCn3cncn3)C2)c1 (stereo not drawn) | 8
CCCCC(=O)Nc1ncc([N+](=O)[O-])s1 | 23
COc1ccc(CC(=O)N2CCC(Nc3nc4ccccc4n3Cc3ccc(F)cc3)CC2)cc1 | 9
CCC(CC)C(=O)N1N=C(c2ccc(NS(C)(=O)=O)cc2)CC1c1ccc(C)cc1 (stereo not drawn) | 22

More entries follow:
SMILES | Biofilm kill mix
Cn1c(SCC(=O)NNC(=O)c2ccc(Br)cc2)nnc1-c1cccnc1 | 17
Cc1ccccc1CNC1CCCCC1 | 15
O=C(O)C1C2C=CC(C2)C1C(=O)NCc1cccnc1 (stereo not drawn) | 1
O=[N+]([O-])c1ccc2c(c1)S(=O)c1ccccc1-2 (stereo not drawn) | 20
Cc1cc(=O)oc2c3c4c(cc12)OCCN4CCC3 | 13
CC1S/C(=N/N=C2CCCCC2)NC1=O (stereo not drawn) | 11
CCOc1cccc2sc(N(CCN(CC)CC)C(=O)c3ccc(S(=O)(=O)N4CCCCC4)cc3)nc12 | 32
Cc1ccc2[nH]c(=O)c(CN(CC3CCCO3)C(=S)NCc3ccco3)cc2c1 (stereo not drawn) | 22
Cn1ccnc1SCCNC(=O)CCc1nnc(CCc2ccccc2)o1 | 1
COc1ccc(CCNC(=O)[C@@H](NC(N)=O)C(C)C)cc1 | 15
CN1/C(=C\C(=O)C[n+]2ccc3ccccc3c2)C(C)(C)c2ccccc21 | 9
Cc1ccc(-c2c[n+](CC(=O)Nc3nc(-c4ccc(F)cc4)cs3)c3n2CCC3)cc1 | 12
CCCCCCCc1ccc(C2NC(=S)NC3=C2C(=O)c2ccccc23)cc1 (stereo not drawn) | 23
Cc1nc(CSc2ccccc2)cc(=O)[nH]1 | 10
COCCc1nnc(NC(=O)C(C)C)s1 | 27
CCOC(=O)NC(NCc1cccc(C(F)(F)F)c1)(C(F)(F)F)C(F)(F)F | 3
O=C(NCc1ccccc1)C1=C[C@H](C2CC2)C[C@H](OCCCCO)O1 | 19
Cc1ccc(Oc2nc(CN3CCOCC3)nc3sc4c(c23)CCC(C)C4)cc1 (stereo not drawn) | 8
COc1ccc(C(CNC(=O)c2ccc(S(=O)(=O)N(C)C)cc2)N(C)C)cc1 (stereo not drawn) | 12
COc1ccc(NC(=O)/C(C#N)=C\c2ccc(OCc3ccc(C(=O)O)cc3)c(OC)c2)cc1 | 12
CC(C)COC(=O)NC1c2ccccc2Oc2ccccc21 | 20
COc1ccc(OC)c(C(Nc2ccccc2)P(=O)(OC(C)C)OC(C)C)c1 (stereo not drawn) | 24
Cc1ccc(Oc2ccc(C=O)cn2)cc1 | 12
CCOC(=O)c1sc(-c2ccc(C(F)(F)F)cc2)nc1O | 22
CC(C)(C)C1CCc2c(sc(NC(=O)c3ccncc3)c2C(N)=O)C1 (stereo not drawn) | 11
Cc1nn(CC2CC2)c(=O)n1-c1ccccc1F | -1
Cc1ccnc(NC(=O)c2cccc([N+](=O)[O-])c2C)c1 | 19
COC(=O)c1nnn(-c2nonc2N)c1COc1ccc(C=O)cc1OC | 2
Cc1nc2c3ccccc3nc(NNC(=O)CCC(=O)NCCC(C)C)n2n1 | 14
CN1CCN(NC(=O)c2cn(-c3ccccc3)nc2-c2cccs2)CC1 | 10
CC(C)(C)c1ccc(NC(=O)COC(=O)CCc2nc3ccccc3c(=O)[nH]2)cc1 | 5
CC(=O)NC1(C(F)(F)F)C(=O)Nc2c1c(=O)[nH]c(=O)n2CCc1ccccc1 (stereo not drawn) | 23
CCCCn1c(SCC(=O)NCc2ccco2)nc2c1c(=O)n(C)c(=O)n2C | 13
Cc1ccc(NC(=O)N2CCCC2C(=O)NCC2CCCO2)cc1 (stereo not drawn) | 17
Cc1ccnc2nc(C(=O)OCC(=O)N3CCc4ccccc43)nn12 | 11
Cc1cccn2c(=O)c3cc(C(=O)N4COCC4(C)C)sc3nc12 | 10
Cc1ccc(C(=O)NN2C(=O)C3C4c5ccccc5C(c5ccccc54)C3C2=O)cc1 (stereo not drawn) | 20
CON(C)c1nc(OCC#N)nc(N(C)C)n1 | 19
Cc1cc(-c2n[nH]c(=S)n2-c2ccccc2C)cs1 | 4
Cc1ccc(C(=O)O/N=C/c2ccc3c(c2)OCO3)cc1 | 13
COc1ccc(NC(=S)NCCCN2CCN(C3CCCCC3)CC2)cc1 | 18
O=S(=O)(Nc1ncnc2sc3c(c12)CCC3)c1cc(F)ccc1F | 16
Cc1cc([N+](=O)[O-])nn1CCCC(=O)Nc1sc2c(c1C(N)=O)CCCC2 | 19
O=C(Nc1ccc(F)cc1)Nc1nnc(-c2ccccc2)o1 | 20
O=C(NCc1ccc(F)cc1)c1ccc(CS(=O)(=O)c2ccc(Br)cc2)o1 | 24
CCOc1ccc2nc(/N=C/c3nc(-c4ccccc4)oc3O)sc2c1 | 7
N#CCC(=O)NNC(=S)Nc1ccccc1C(F)(F)F | 3
CCOc1ccc(NS(=O)(=O)c2cc(NC(=O)CCC(=O)c3cccs3)ccc2Cl)cc1 | 44
CC(C)CC(=O)NC(=S)Nc1ccc(S(=O)(=O)N2CCN(C)CC2)cc1 | 18
COc1ccccc1CNC(=O)C(=O)NCC1OCCN1S(=O)(=O)c1cccs1 (stereo not drawn) | 18
O=C(Nc1ncc(S(=O)(=O)c2ccc([N+](=O)[O-])cc2)s1)c1ccc2ccccc2c1 | 15
CCOC(=O)/C=c1\s/c(=C\c2ccccc2C)c(=O)n1CC(=O)NCc1ccc2c(c1)OCO2 | 26
CCn1c(CC(=O)Nc2ccccc2)nnc1SCc1nc2ccccc2c(=O)[nH]1 | 21
O=C(Nc1nnc(C2=COCCO2)o1)c1ccc(Cc2ccccc2)cc1 | 0
O=C(CN1C(=O)NC(Cc2c[nH]c3ccccc23)C1=O)Nc1cccc(S(=O)(=O)N2CCCCCC2)c1 (stereo not drawn) | 8
COc1cc2c(cc1NC(=O)C(C)Sc1nc3ccccc3n1C)oc1ccccc12 (stereo not drawn) | 15
CC(C)(C)CC(C)(C)NC(=S)N1CCN(Cc2ccc3c(c2)OCO3)CC1 | 12
COc1cc(/C=C2/CCc3ccccc3C2=O)cc(OC)c1OC | 25
Cc1ccc(N(CC(=O)NCc2ccc(F)cc2)C(=O)c2csnn2)cc1C | 10
CCCCCNCc1ccc(Cl)cc1 | 16

Exported as a markdown table: 2 of the compounds above
| SMILES | Biofilm kill mix |
| --- | --- |
| O=C(Nc1ccc(F)cc1)Nc1nnc(-c2ccccc2)o1 | 20 |
| O=C(NCc1ccc(F)cc1)c1ccc(CS(=O)(=O)c2ccc(Br)cc2)o1 | 24 |

Further entries follow.
SMILES | Biofilm kill mix
CCOc1ccc(Nc2nc3ccccc3n3cnnc23)cc1 | 24
CCN(Cc1nc2ccccc2c(=O)[nH]1)Cc1nc2ccsc2c(=O)[nH]1 | -1
Nc1nc(NCc2ccco2)nc(NC2CCCCC2)c1[N+](=O)[O-] | 14
CCCNC(=O)/C=C/c1ccc(C(C)C)cc1 | 11
S=C1N(c2ccccc2)CN(C2CCCCC2)CN1c1ccccc1 | 4
c1ccc(-c2n[nH]c(-c3ccccn3)n2)nc1 | 6
CN(C)c1ccc(/C=C/C(=O)c2cc(Cl)ccc2O)cc1 | 24
COc1ccc(C(=O)/C(C#N)=N/Nc2ccccc2[N+](=O)[O-])cc1 | 7
COc1ccc(NS(=O)(=O)c2cccc(-c3n[nH]c(=S)n3Cc3ccccc3)c2)cc1 | 14
COc1ccc(CCNC(=O)CC2C(=O)NCCN2CC(C)(C)C)cc1 (stereo not drawn) | 29
O=C(Cc1ccc(Cl)cc1)N/N=C/c1cccs1 | 9
COc1ccc(NC(=O)COC(=O)c2ccc(S(=O)(=O)N(C)c3ccccc3OC)cc2)cc1OC | 11
CC(=O)N1c2ccccc2C(C)=CC1(C)C | 19
Cc1c(-n2c(-c3ccccc3)nc3ccccc3c2=O)c(=O)n(-c2ccccc2)n1C | 2
O=C(N/C(=C/c1cccnc1)C(=O)N1CCOCC1)c1ccco1 | 1
CN(C)c1cc[n+](CC(=O)Nc2ccc(OC(F)F)cc2)cc1 | -5
COc1ccc(OC)c(NC(=S)NCCCN2CCOCC2)c1 | 8
O=S(=O)(c1ccccc1)c1nc(NCc2cccnc2)sc1Cl | 16
CCN(CC)C(=O)c1ccc(-c2ccccc2)cc1 | 5
CC(C)N(Cc1ccccc1)C(=S)Nc1ccccc1F | 19
Cc1ccc(-n2ncc3c(SCc4cccc(C)c4)ncnc32)cc1 | 17
CCn1c(=O)c(=O)[nH]c2cc(C(=O)N3CCN(Cc4ccc5c(c4)OCO5)CC3)ccc21 | 6
